AmpC inh no det: blocks E. coli AmpC beta-lactamase in absence of detergent; P00811; AmpC nitrocefin hydrolysis, absorbance 480 nm, no detergent; potencies from a single point are estimates; Potency, µM (doses to about 28.7 µM), for inactives: at the highest dose activity change, negative = inhibition; 71,000 compounds, 1.8% hits; active = falling curve, for most hits resting on a single point; inconclusive = weak or doubtful change; inactive = flat or rising curve; further: % of control where 0% means no effect; about half of the hits show no inhibition at the top dose; a quarter of the inactives give rising signals
Target sequence (P00811 whole entry, looked up): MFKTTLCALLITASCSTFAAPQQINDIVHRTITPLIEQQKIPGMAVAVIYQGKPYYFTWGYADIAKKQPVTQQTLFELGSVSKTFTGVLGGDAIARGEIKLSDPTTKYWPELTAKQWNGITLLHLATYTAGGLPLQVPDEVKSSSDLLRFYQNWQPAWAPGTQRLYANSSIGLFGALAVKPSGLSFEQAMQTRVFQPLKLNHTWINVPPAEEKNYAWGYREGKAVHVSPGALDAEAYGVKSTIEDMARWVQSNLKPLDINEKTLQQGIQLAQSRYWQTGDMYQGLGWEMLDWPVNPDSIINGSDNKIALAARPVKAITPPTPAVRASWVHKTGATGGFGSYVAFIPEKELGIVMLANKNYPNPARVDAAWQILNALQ
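AmpC, 20 mM phosphate pH 7.0; 15 min cpd preinc, RT; start with nitrocefin (800 uM stock); A480 kinetic read, 20 s intervals, 4 min. No-enzyme wells = negative control.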
* marks the source's active call; other numbers are inactive results; ? = inconclusive; [ ] = dose if it differs, or a comment. Potency means the concentration at half of the fitted maximal effect. A portion of the library; count on the stated rates, not on these rows.

SMILES	AmpC inh no det
CCC(=O)N(Cc1ccc2c(c1)OCO2)Cc1cc2cc(OC)ccc2[nH]c1=O	19.9%
COc1ccc(C2C(C(=O)O)CC(=O)N2c2ccc(OC)cc2)cc1 (stereo unspecified)	-14.4%
COCC(=O)N1CCC(n2nnc3cc(F)ccc32)CC1	-7.0%
CS(=O)(=O)NCc1ccc(C(=O)NC2CCCCC2)cc1	10.8%
CCC(C(=O)O)n1nnc(-c2ccc(-c3ccc(OC)cc3)cc2)n1 (stereo unspecified)	-17.8%
CCN(CC)CCCn1c(-c2ccccc2)nc2c(N3CCOCC3)nc(C)nc21	26.2%
COC(=O)c1cc(OC)c(OC)cc1N=CC1=C(O)CC(C)(C)CC1=O	7.5%
COC(=O)[C@@]1(Cc2ccccc2)[C@H]2c3cc(C(=O)N4CCCC4)n(CCO)c3C[C@H]2CN1C(=O)c1ccccc1	171.3%
Clc1ncn(C23CC4CC(CC(C4)C2)C3)n1	7.1%
COc1ccc(OC)c(C2C(C(=O)c3cccs3)=C(O)C(=O)N2c2cc(C)on2)c1 (stereo unspecified)	-1.9%
COc1ccc(N2CCN(CCCNC(=O)C3(S(=O)(=O)c4ccc(Cl)cc4)CC3)CC2)cc1	108.7%
Cc1nn(Cc2ccccc2)c(C)c1C(=O)Nc1ccc(N2CCOCC2)cc1	56.0%
Cc1ccc(-c2nnn(Cc3nc(N)nc(N4CCOCC4)n3)n2)cc1	57.6%
COc1cc(OC)c(-c2nn3c(-c4cccnc4)nnc3s2)cc1OC	45.3%
COc1ccc(-c2noc(CCC(=O)NCc3cc(Br)ccc3OC)n2)cc1	59.0%
c1cnc(NC2C3CC4CC(C3)CC2C4)nc1 (stereo unspecified)	6.9%
Cc1cc(C)c(S(=O)(=O)NCc2cn3c(C)csc3n2)cc1C	1.9%
Cc1ccccc1Cn1ccc(NC(=O)c2cc3nc(-c4ccco4)cc(C(F)(F)F)n3n2)n1	68.4%
O=c1cc(CSc2nnnn2-c2ccccc2)nc2scc(-c3ccccc3)n12	-1.5%
Cc1noc(C)c1C(=O)N1CCC2(CCN(C(=O)NC(C)C)CC2)CC1	5.5%
O/N=C1\CCCc2nnc3c(c21)CCCC3	1.0%
CCc1ccc2oc(-c3ccc(N)cc3)nc2c1	34.4%
CC(=O)NC1Sc2ccccc2N=C1c1ccccc1 (stereo unspecified)	-7.7%
Fc1ccc(OCc2nn3c(Cn4nnc5ccccc54)nnc3s2)cc1	8.8%
CCOc1cccc(C(=O)Nc2nc(-c3ccc(S(=O)(=O)N4CCOCC4)cc3)cs2)c1	47.5%
O=C(NCC(=O)N(Cc1ccco1)C(C(=O)NC1CCCC1)c1cccnc1)c1cccs1 (stereo unspecified)	8.8%
Cc1c(-c2ccccc2)[n+](=O)c(-c2ccco2)c(C)n1[O-]	-13.2%
Cc1noc(NS(=O)(=O)c2ccc(NC(=O)c3cnc4scc(C)n4c3=O)cc2)c1C	2.0%
COc1ccc(CNC(=O)C(C)NC(=O)c2cc3ccccc3o2)cc1 (stereo unspecified)	0.3%
O=C1c2ccccc2C(=O)N1C/C=C/c1ccccc1	-9.7%
Nn1c(Cc2ccccc2F)nnc1SCC(=O)N1CC(=O)Nc2ccccc21	-14.4%
Nc1c(S(=O)(=O)O)cc(Nc2cccc(S(N)(=O)=O)c2)c2c1C(=O)c1ccccc1C2=O	-6.1%[5.75 µM]
CCOC(=O)C1=C(O)CSC1=Nc1ccccc1	6.5%
CCCn1c(SCc2ccccc2)nc2c1c(=O)[nH]c(=O)n2C	13.2%
NC1=NC2(CCN(Cc3ccccc3)CC2)n2c(nc3ccccc32)N1	18.7%
Cc1cc(-n2nnc3ccccc32)nc2ccccc12	3.6%
CS(=O)(=O)N(CC(=O)Nc1ccc2c(c1)OCCO2)Cc1ccc(Cl)cc1	1.9%
Clc1ccccc1OCCCCn1ccnc1	13.4%
COc1ccc(-n2c(SCCC#N)nnc2-c2cc(Cl)ccc2OC)cc1Cl	39.7%
NCCc1c[nH]c2ccc(O)cc12	-8.0%[12.8 µM]

4 entries from above, reformatted:
> CC(=O)NC1Sc2ccccc2N=C1c1ccccc1 (stereo unspecified)
  AmpC inh no det: -7.7%

> CCC(=O)N(Cc1ccc2c(c1)OCO2)Cc1cc2cc(OC)ccc2[nH]c1=O
  AmpC inh no det: 19.9%

> CCN(CC)CCCn1c(-c2ccccc2)nc2c(N3CCOCC3)nc(C)nc21
  AmpC inh no det: 26.2%

> O=c1cc(CSc2nnnn2-c2ccccc2)nc2scc(-c3ccccc3)n12
  AmpC inh no det: -1.5%

Sorted by formula weight (descending): some entries from above
SMILES	AmpC inh no det
Nn1c(Cc2ccccc2F)nnc1SCC(=O)N1CC(=O)Nc2ccccc21	-14.4%
Fc1ccc(OCc2nn3c(Cn4nnc5ccccc54)nnc3s2)cc1	8.8%
CCCn1c(SCc2ccccc2)nc2c1c(=O)[nH]c(=O)n2C	13.2%
Cc1c(-c2ccccc2)[n+](=O)c(-c2ccco2)c(C)n1[O-]	-13.2%

(more compounds)
SMILES	AmpC inh no det
CCOc1cc(/C=N/O)cc(Br)c1OC	2.0%
C=CCn1c(=O)c2c(C)c(C)sc2n2c(Nc3ccc(OC)cc3)nnc12	22.0%
O=C(CN1CCN(C(c2ccccc2)c2ccccc2)CC1)N1CCOCC1	77.5%
Cc1noc(C)c1S(=O)(=O)NC1CCN(Cc2ccccc2)CC1	14.4%
CNC(=O)c1nnn(Cc2ccccc2)c1NC(C)=O	-8.4%
CN1CC=C2C(C#N)=C(N)C(C#N)(C#N)C(Cc3ccccc3)C2C1 (stereo unspecified)	-13.5%
N[C@@H](CSc1nc2ccccn2c1[N+](=O)[O-])C(=O)O	0.1%[5.75 µM]
COc1ccc(-n2c(=O)[nH]c3ccccc3c2=O)c(OC)c1	-5.1%
COc1ccc2c(c1)OCC1=C2CCC2(C)C(=O)CC=C12 (stereo unspecified)	4.0%
CCOC(=O)c1[nH]c2ccc(OC)cc2c1NC(=O)CN1CCSCC1	29.2%
OC(CN1CCOCC1)CN(c1ccccc1)c1ccccc1 (stereo unspecified)	29.6%
CCOC(=O)c1ccc(NC(=O)CSc2nccn2C)cc1	-10.7%
COC(=O)CS(=O)(=O)c1nnc([C@H](Cc2ccccc2)NC(=O)OC(C)(C)C)o1	?
OC1CCCN(Cc2ccc3c(c2)Cc2ccccc2-3)C1 (stereo unspecified)	25.3%
CC1CC2(O)c3nonc3CCC2N1O (stereo unspecified)	-15.0%
CCOc1ccc(S(=O)(=O)N2CCCCC2)c2ccccc12	17.4%
Cc1nn(-c2ccccc2)c(C)c1NC(=O)c1ccc(S(=O)(=O)N2CCCC2)cc1	59.5%
O=C(CN1C(=O)NC2(CCOc3ccccc32)C1=O)Nc1ccc2c(c1)OCCO2 (stereo unspecified)	-2.4%
O=C(C1CCN(S(=O)(=O)c2cccnc2)CC1)N1CCN(c2ccc(Cl)cc2)CC1	124.5%
CCN1CCN(C(=O)c2nn(-c3ccc(OC)cc3)c(=O)c3c2c2ccccc2n3C)CC1	94.4%

4 of the compounds above, with each value named.
molecule: O=c1cc(CSc2nnnn2-c2ccccc2)nc2scc(-c3ccccc3)n12
  AmpC inh no det: -1.5%
molecule: O=C(C1CCN(S(=O)(=O)c2cccnc2)CC1)N1CCN(c2ccc(Cl)cc2)CC1
  AmpC inh no det: 124.5%
molecule: Cc1ccccc1Cn1ccc(NC(=O)c2cc3nc(-c4ccco4)cc(C(F)(F)F)n3n2)n1
  AmpC inh no det: 68.4%
molecule: COc1ccc(-c2noc(CCC(=O)NCc3cc(Br)ccc3OC)n2)cc1
  AmpC inh no det: 59.0%

(further entries)
SMILES	AmpC inh no det
COCCNC(=O)CN1CCC(NC(=O)Nc2ccc(C(F)(F)F)cc2)CC1	18.5%
CCc1ccc(OCc2nnc(SCC(=O)NCc3ccco3)o2)cc1	31.3%
C/C(=C\C#N)n1nc(C)cc1N	-8.7%
CCOc1ccc(C2C(C#N)=C(N)SC(N)=C2C#N)cc1OCC	5.2%
COC(=O)CN1C(=O)C2(OCCCO2)c2ccccc21	-2.0%
CCS(=O)(=O)N1CCC(NC(=O)c2ccco2)CC1	-5.8%
Cc1ncc[nH]1	-3.4%
Oc1c(CN2CCN(c3ccccc3)CC2)cc(Br)c2cccnc12	-13.4%[5.75 µM]
Cc1ccc(-c2cc(C(=O)Nc3c(C)n(C)n(-c4ccccc4)c3=O)[nH]n2)c(O)c1	-1.8%
Nc1ccc([N+](=O)[O-])cc1O	-10.1%
CC(C)N1C(=O)CCC1C(=O)N1CCN(c2ccccn2)CC1 (stereo unspecified)	-8.8%
CCOC(=O)C1=C(N)OC2=C(C(=O)CCC2)C1c1ccco1 (stereo unspecified)	4.7%
Cc1nc(C)c(C(=O)Nc2nc3c(C)cccc3s2)o1	39.6%
Clc1ccc(C(c2nnnn2C2CCCC2)N2CCN(Cc3ccncc3)CC2)cc1 (stereo unspecified)	122.4%
NC(=O)c1cc(Br)cc2c3c([nH]c12)CCCC3	28.9%
O=C(Cc1ncn[nH]1)NCCc1ccccc1	3.0%
COc1ccc2[nH]c(=O)c(CNC3CCCCC3)cc2c1	-15.2%
CCCSC1=C(C#N)C(c2ccccc2C)C(C(=O)OC)C(=O)N1 (stereo unspecified)	-4.4%
CCCCn1c(O)c(C=NC2CCCCC2N)c(=O)[nH]c1=O (stereo unspecified)	-8.1%
O=C(O)c1cccc2[nH]c(C(F)(F)F)nc12	-5.6%
N#CCc1ccc(NS(=O)(=O)c2ccc(N3CCCC3=O)cc2)cc1	-14.9%
CCc1cc2c(N3CCCCC3)ncnc2s1	4.3%
O=C(NC1CCCCC1)C1CCN(c2cnccn2)CC1	-0.8%
CCOC(=O)CSc1nnc(-c2ccc(OC)cc2)n1CC	21.6%
O=C(c1ccco1)N1CCN(Cc2cccc(F)c2)CC1	11.9%
c1cncc(-c2cncnc2NCc2cccs2)c1	5.8%
COc1ccccc1C(=O)Nc1nnn(C)n1	0.0%
CC12CCC(C(=O)NC3CCCC3)(CC1=O)C2(C)C (stereo unspecified)	22.2%
COC(=O)C1=CCCN(C)C1	-7.8%[12.8 µM]
Cc1cc(C)n(-c2ccc(C(=O)Nc3ccc4c(c3)OCCO4)cc2)n1	21.3%
COc1ccc(OC)c(-c2csc3nnc(SCC(=O)Nc4ccc(NC(C)=O)cc4)n23)c1	10.6%
COC(=O)c1cc2c(s1)-c1ccccc1OC2	9.9%
CN(CC(=O)O)S(=O)(=O)c1cccs1	-8.9%
C=CCn1c(-c2c[nH]c3ccccc23)n[nH]c1=S	-13.2%
CCc1ccccc1OCCCCN1CCCC1	-3.7%
N#Cc1ccc(CN2CC3(CCN(C(=O)c4cnccn4)CC3)C2)cc1	3.5%
c1ccc2c(c1)OC[C@@H](C1=NCCN1)O2	30.8%
O=C(CCCOc1ccccc1)N1CCc2ccccc2C1	20.6%
CCOC(=O)N1CCN(C(=O)c2ccc(N3CCCC3=O)cc2)CC1	1.4%
NCc1ccc(C(=O)O)cc1	13.5%[5.75 µM]
COc1ccccc1CNC(=O)CCCNS(=O)(=O)c1cccc2nsnc12	25.9%
CC[C@H]1C2=C3C(CC[C@H]4C(OC)OC[C@](C)([C@@H]34)N(C(=O)OC(C)(C)C)C2)C(CO)C1CO (stereo partly specified)	161.0%
O=C(CSC1=NCCS1)N1CCCC1	-8.3%
COc1ccc(CCNC(=O)c2oc3ccc(S(=O)(=O)N4CCOCC4)cc3c2C)cc1OC	105.5%
COC(=O)[C@@]1(Cc2ccc(F)cc2)[C@H]2c3cc(C(=O)N4CCCC4)n(Cc4ccc(Cl)c(C(F)(F)F)c4)c3C[C@H]2CN1C(=O)c1ccccc1	80.7%
Cc1ccc(-c2ccc(=O)n(CC(=O)NCCN3C(C)CCCC3C)n2)cc1 (stereo unspecified)	9.8%
c1ccc(CCNc2ncnc3c2nnn3Cc2ccccc2)cc1	-8.2%
COc1ccc(NC(C)=O)cc1NC(=O)CN1CCN(CC(=O)Nc2ccccc2Cl)CC1	129.3%

Source: PubChem
